Bioassay records (PubChem BioAssay)
ID4 binder: binders of human ID4 protein, primary screen, biochemical, small molecule microarray, single point; DNA-binding protein inhibitor ID-4 (Homo sapiens), P47928; Flag-ID4 binding, fluorescence F/B; calls only; 31,000 compounds, 1.2% hits;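 active = spot signal over background at p below 0.07 in all four prints; compounds were printed on slides so no solution concentration is given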;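 note: a binder raises fluorescence above local background on the spot; about 2 pmol printed per array spot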
Target sequence (P47928 whole entry, looked up): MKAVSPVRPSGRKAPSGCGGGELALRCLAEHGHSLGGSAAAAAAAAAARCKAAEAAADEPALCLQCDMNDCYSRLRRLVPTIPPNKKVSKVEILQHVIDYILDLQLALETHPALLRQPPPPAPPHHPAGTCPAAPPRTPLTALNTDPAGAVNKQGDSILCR
STAT3 SMM: STAT3 binders, primary screen, biochemical, small molecule microarray, single point, set 2; 17,000 compounds, 0.2% hits; His-STAT3 binding, anti-His fluorescence; Signal transducer and activator of transcription 3 (Homo sapiens), P40763; AID 624138, 2012; calls only;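 active = compounds whose four printed spots each show fluorescence over background unusually high for their array block, chance value under 7%; compounds were printed on slides so no solution concentration is given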;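 note: about 2 pmol printed per array spot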
Target sequence (P40763 whole entry, looked up): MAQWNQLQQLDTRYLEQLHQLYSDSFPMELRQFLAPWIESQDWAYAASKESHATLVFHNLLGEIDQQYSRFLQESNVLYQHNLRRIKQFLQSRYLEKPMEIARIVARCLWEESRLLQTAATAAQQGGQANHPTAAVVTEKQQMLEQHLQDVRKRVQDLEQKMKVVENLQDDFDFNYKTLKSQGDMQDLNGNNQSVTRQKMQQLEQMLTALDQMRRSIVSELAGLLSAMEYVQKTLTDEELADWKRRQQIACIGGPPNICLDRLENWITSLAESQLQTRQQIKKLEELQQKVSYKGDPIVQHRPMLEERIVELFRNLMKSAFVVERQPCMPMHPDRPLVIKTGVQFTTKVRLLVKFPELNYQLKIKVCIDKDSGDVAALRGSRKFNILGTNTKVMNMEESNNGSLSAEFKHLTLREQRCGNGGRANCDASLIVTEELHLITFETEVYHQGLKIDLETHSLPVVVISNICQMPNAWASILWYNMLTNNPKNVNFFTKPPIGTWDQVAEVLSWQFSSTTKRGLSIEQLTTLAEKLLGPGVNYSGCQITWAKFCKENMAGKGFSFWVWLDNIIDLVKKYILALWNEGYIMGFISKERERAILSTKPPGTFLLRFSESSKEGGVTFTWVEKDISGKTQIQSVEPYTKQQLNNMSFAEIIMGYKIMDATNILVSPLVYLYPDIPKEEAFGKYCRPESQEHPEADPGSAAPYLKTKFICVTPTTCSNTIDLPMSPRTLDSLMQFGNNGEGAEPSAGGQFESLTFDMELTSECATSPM
Myc binder: binders of human c-Myc, primary screen, biochemical, small molecule microarray, anti-His fluorescence; 17,000 compounds, 1.5% hits; Myc proto-oncogene protein (Homo sapiens), P01106; His-c-Myc binding; calls only;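 active = spot fluorescence over background with P-value below 7% in all four replicate spots, showing protein binding; compounds were printed on slides so no solution concentration is given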;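 note: score is binary with 100 for all four spots passing and 0 otherwise; about 2 pmol printed per array spot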
p53 mut binder: binders of human mutant p53, primary screen, biochemical, small molecule microarray, anti-GST fluorescence; mutant tumor protein p53 (GST-tagged), Homo sapiens; small molecule microarray binding; calls only; 17,000 compounds, 0.4% hits; AID 624136, 2012;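 active = compounds whose four printed spots each glow above background more than chance allows, each with a p-value under 7%; compounds were printed on slides so no solution concentration is given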;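 note: about 2 pmol printed per array spot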
Calls only; i = inactive; x = no result given; + = active, no number. Outcome played no part in choosing rows. Share with any hit: about 3.7%.

SMILES | ID4 binder | STAT3 SMM | Myc binder | p53 mut binder
C=CCN1C(=O)N[C@@H]2c3ccccc3O[C@@]1(COCc1ccc(OC)cc1)[C@@H]2CO | i | i | i | i
Oc1ccc(CCCCC(O)CCc2ccc(O)cc2)cc1 (configuration not stated) | i | i | i | i
CC1CCC2(C)C(CC(O)C(O)C23CO3)C1(C)CCC1=CC(=O)OC1O (configuration not stated) | x | i | i | i
C[C@H]1CN([C@@H](C)CO)C(=O)Cc2cc(NC(=O)Nc3ccc(F)cc3)ccc2O[C@H]1CN(C)CC1CC1 | i | + | i | i
C/C(=N\O)C(=O)NCCCCCNC(=O)OCc1ccccc1 | i | i | i | i
C[C@H]1CN([C@@H](C)CO)C(=O)Cc2cc(NS(=O)(=O)c3ccc(Cl)cc3)ccc2O[C@@H]1CN(C)C(=O)Nc1ccc(F)cc1 | i | i | i | i
C[C@H](CO)N1C[C@H](C)[C@H](CN(C)S(=O)(=O)c2ccc(Oc3ccccc3)nc2)OCc2cn(nn2)CCCC1=O | i | i | i | i
C[C@@H]1CN([C@H](C)CO)C(=O)c2cc(NC(=O)C3CCCCC3)ccc2O[C@@H](C)CCCCO[C@@H]1CN(C)C(=O)Nc1ccccc1 | i | i | i | i
C[C@H]1C(=O)N2c3ccccc3[C@@]3(O)C[C@@H]4C(=O)N[C@@](C)(c5nc6ccccc6c(=O)n54)N1[C@@H]23 | x | i | i | i
C[C@H](CO)N1C[C@H](C)[C@@H](CN(C)C(=O)C2CCCCC2)OCCCC[C@H](C)Oc2ccc(NS(=O)(=O)c3ccccc3)cc2C1=O | i | i | i | i
CNC[C@H]1Oc2ccc(NC(=O)Nc3ccc(OC)cc3)cc2C(=O)N([C@H](C)CO)C[C@H]1C | i | i | i | i
Cc1ccc(S(=O)(=O)Nc2ccc3c(c2)C(=O)N([C@@H](C)CO)C[C@@H](C)[C@H](CN(C)Cc2ccncc2)OCCCC[C@@H](C)O3)cc1 | x | i | i | i
C[C@@H]1CN([C@H](C)CO)C(=O)c2cc(NC(=O)C3CC3)ccc2O[C@H]1CN(C)C(=O)Nc1ccc2c(c1)OCO2 | x | i | i | i
C[C@H](CO)N1C[C@H](C)[C@@H](CN(C)C)Oc2ccc(NC(=O)C3CC3)cc2C1=O | i | i | i | i
C[C@H](CO)N1C[C@H](C)[C@H](CN(C)C(=O)Nc2ccc(F)cc2)OCCCC[C@H](C)Oc2ccc(NC(=O)c3ccncc3)cc2C1=O | i | i | i | i
COc1ccc(C#Cc2ccc3c(c2)[C@]2(C(=O)N3)[C@H](C(=O)O)[C@H]3C(=O)O[C@H](c4ccccc4)[C@H](c4ccccc4)N3[C@@H]2c2ccccc2OCCO)cc1 | x | i | i | i
Cc1noc(C)c1NC(=O)N(C)C[C@@H]1OCCCC[C@@H](C)Oc2ccc(NC(=O)CCC(F)(F)F)cc2C(=O)N([C@H](C)CO)C[C@@H]1C | i | i | i | i
CC(Oc1ccccc1)C(=O)N[C@@H]1C(=O)N2[C@@H]1SC(C)(C)[C@@H]2C(=O)O (some centres not stated) | i | i | i | i
COc1cccc(CNc2nc3ccccc3n2C)c1OC | i | i | i | i
COc1ccc(OCC(=O)Nc2ccccc2C(=O)Nc2ccc(C(=O)O)cc2)cc1 | i | i | i | i
COC(=O)c1ccccc1NC(=O)COc1ccc2c(C)cc(=O)oc2c1 | i | i | i | i
COc1ccc(CN(C)C[C@@H]2Oc3c(NC(=O)Nc4ccc5c(c4)OCO5)cccc3C(=O)N([C@@H](C)CO)C[C@H]2C)cc1 | i | i | i | i
COc1ccc(S(=O)(=O)Nc2ccc3c(c2)CC(=O)N([C@H](C)CO)C[C@@H](C)[C@@H](CN(C)C)O3)cc1 | i | i | i | i
C[C@@H]1CN([C@H](C)CO)C(=O)c2cc(NS(=O)(=O)c3ccc(Cl)cc3)ccc2O[C@@H](C)CCCCO[C@@H]1CN(C)C | i | i | i | i
C[C@@H]1CN([C@@H](C)CO)C(=O)c2cc(NC(=O)NC3CCCCC3)ccc2O[C@H]1CN(C)S(=O)(=O)c1ccc(Cl)cc1 | i | i | i | i
C[C@@H]1CN([C@H](C)CO)C(=O)CCCn2cc(nn2)CO[C@H]1CN(C)S(=O)(=O)c1ccc(Cl)cc1 | i | i | i | i
C[C@@H]1CN([C@H](C)CO)C(=O)c2cc(NC(=O)Nc3ccccc3)ccc2O[C@H]1CN(C)S(C)(=O)=O | x | i | i | i
CC(=O)OC(COc1cccc2ccccc12)Cn1cnc2ccccc21 (configuration not stated) | i | i | i | i
C[C@H]1CN([C@@H](C)CO)C(=O)c2cccc(NS(C)(=O)=O)c2O[C@H]1CN(C)Cc1ccc(C(F)(F)F)cc1 | i | i | i | i
C[C@@H]1CN([C@@H](C)CO)C(=O)c2cc(NS(=O)(=O)c3ccccc3)ccc2O[C@@H](C)CCCCO[C@@H]1CN(C)C(=O)Nc1ccc(F)cc1 | i | i | i | i
Cc1ccc(C(=O)O)cc1S(=O)(=O)N(CCO)CCO | i | i | i | i
C[C@H]1CN([C@@H](C)CO)C(=O)c2cccc(NC(=O)Nc3ccccc3)c2O[C@@H]1CN(C)C(=O)NC1CCCCC1 | i | i | i | i
CC1OC(OCC2OC(Oc3cc(O)c4c(=O)c(-c5ccc(O)cc5)coc4c3)C(O)C(O)C2O)C(O)C(O)C1OC1OC(CO)C(O)C(O)C1O (configuration not stated) | i | i | i | i
C[C@@H]1CCCCO[C@H](CN(C)C)[C@@H](C)CN([C@H](C)CO)C(=O)c2cc(NC(=O)c3ccccc3)ccc2O1 | i | i | i | i
C[C@@H]1CN([C@@H](C)CO)C(=O)c2cc(N(C)C)ccc2O[C@@H](C)CCCCO[C@H]1CN(C)C(=O)c1ccncc1 | i | i | i | i
CNC[C@@H]1Oc2ccc(NC(=O)Nc3ccc4c(c3)OCO4)cc2CC(=O)N([C@H](C)CO)C[C@H]1C | i | i | i | i
C[C@@H]1CN([C@H](C)CO)C(=O)c2cccc(NC(=O)c3ccncc3)c2O[C@@H]1CN(C)C(=O)Nc1cccc2ccccc12 | i | i | i | i
C[C@H](CO)N1C[C@H](C)[C@@H](CN(C)Cc2ccc(-c3ccccc3)cc2)Oc2c(NC(=O)C3CCOCC3)cccc2C1=O | x | i | i | i
C[C@@H]1CN([C@@H](C)CO)C(=O)c2cccc(NC(=O)c3cnccn3)c2O[C@@H]1CN(C)C(=O)NC1CCCCC1 | i | i | i | i
C[C@@H]1CN([C@@H](C)CO)C(=O)c2cccc(NC(=O)c3cnccn3)c2O[C@H]1CN(C)S(=O)(=O)c1ccc(F)cc1 | x | i | i | i

Part of the list above, as labelled records.
CNC[C@@H]1Oc2ccc(NC(=O)Nc3ccc4c(c3)OCO4)cc2CC(=O)N([C@H](C)CO)C[C@H]1C
  ID4 binder: i; STAT3 SMM: i; Myc binder: i; p53 mut binder: i

C[C@H](CO)N1C[C@H](C)[C@@H](CN(C)C)Oc2ccc(NC(=O)C3CC3)cc2C1=O
  ID4 binder: i; STAT3 SMM: i; Myc binder: i; p53 mut binder: i

COc1cccc(CNc2nc3ccccc3n2C)c1OC
  ID4 binder: i; STAT3 SMM: i; Myc binder: i; p53 mut binder: i

C[C@@H]1CN([C@@H](C)CO)C(=O)c2cccc(NC(=O)c3cnccn3)c2O[C@@H]1CN(C)C(=O)NC1CCCCC1
  ID4 binder: i; STAT3 SMM: i; Myc binder: i; p53 mut binder: i

The results go on.
SMILES | ID4 binder | STAT3 SMM | Myc binder | p53 mut binder
C[C@@H]1CN([C@H](C)CO)C(=O)Cc2cc(NC(=O)Cc3cn(C)c4ccccc34)ccc2O[C@@H]1CN(C)CC1CC1 | i | i | i | i
C[C@H]1CN([C@@H](C)CO)C(=O)Cc2cc(NC(=O)Cc3ccccc3)ccc2O[C@H]1CN(C)Cc1ccncc1 | i | i | i | i
CC1(C)CC1C(=O)N/C(=C\CCCCSCC(N)C(=O)O)C(=O)O (configuration not stated) | i | i | i | i
C[C@@H]1CCCCO[C@@H](CN(C)C(=O)NC2CCCCC2)[C@@H](C)CN([C@H](C)CO)C(=O)c2cc(NS(=O)(=O)c3cccs3)ccc2O1 | x | i | i | i
Cc1noc(C)c1NC(=O)Nc1ccc2c(c1)CC(=O)N([C@@H](C)CO)C[C@@H](C)[C@@H](CN(C)Cc1ccncc1)O2 | i | i | i | i
C[C@@H]1CN([C@H](C)CO)C(=O)Cc2cc(NS(=O)(=O)c3ccc(Cl)cc3)ccc2O[C@@H]1CN(C)CC1CCCCC1 | i | i | i | i
COc1ccc(N(CC(=O)O)S(C)(=O)=O)cc1OC | i | i | i | i
C[C@@H]1CCCCO[C@H](CN(C)Cc2ccc(Cl)c(Cl)c2)[C@H](C)CN([C@@H](C)CO)C(=O)c2cc(NS(=O)(=O)c3cn(C)cn3)ccc2O1 | x | i | i | i
COc1ccc(Cl)cc1NC(=O)CSc1nc2ccccc2n1-c1ccccc1 | i | i | i | i
C[C@H]1CN([C@@H](C)CO)C(=O)c2cccc(NC(=O)c3nc4ccccc4s3)c2O[C@H]1CN(C)CC1CC1 | i | i | i | i
CC(C)NC(=O)N(C)C[C@H]1Oc2c(NC(=O)C3CCOCC3)cccc2C(=O)N([C@H](C)CO)C[C@H]1C | i | i | i | i
COC(=O)c1ccccc1NC(=O)CSc1nnnn1-c1ccccc1OC | i | i | i | i
C[C@@H]1CN([C@@H](C)CO)C(=O)c2cc(NS(=O)(=O)c3ccc(Cl)cc3)ccc2O[C@@H]1CN(C)C(=O)NC1CCCCC1 | i | i | i | i
C[C@@H]1CCCCO[C@@H](CN(C)Cc2ccccc2)[C@H](C)CN([C@@H](C)CO)C(=O)c2cc(NC(=O)CCC(F)(F)F)ccc2O1 | i | i | i | i
CCn1c(SCC(=O)Nc2cc(C(F)(F)F)cc(C(F)(F)F)c2)nnc1-c1ccncc1 | i | i | i | i
CC(C)NC(=O)Nc1ccc2c(c1)C(=O)N([C@@H](C)CO)C[C@@H](C)[C@H](CN(C)Cc1ccccc1)OCCCC[C@@H](C)O2 | i | i | i | i
C[C@@H]1CN([C@@H](C)CO)C(=O)c2cc(NC(=O)c3ccncc3)ccc2O[C@@H](C)CCCCO[C@@H]1CN(C)C(=O)C1CCCCC1 | i | i | i | i
O=C(NCC1CCCO1)c1cc(S(=O)(=O)N2CCCC2)c(Cl)cc1Cl (configuration not stated) | i | i | i | i
Nc1cccc(-c2cc3c(Oc4cccc(O)c4)ncnc3[nH]2)c1 | x | i | i | i
N#Cc1c(NC(=O)c2ccc(COc3ccccc3Cl)o2)sc2c1CCCC2 | i | i | i | i
COCCOC(=O)N1C(=O)[C@@]2(c3cc(C#CCCO)ccc31)[C@H](c1ccccc1OCCO)N1[C@H](c3ccccc3)[C@H](c3ccccc3)OC(=O)[C@H]1[C@@H]2C(=O)N1CCc2cc(OC)c(OC)cc2C1 | i | i | i | i
Cc1ccc(S(=O)(=O)Nc2ccc3c(c2)CC(=O)N([C@@H](C)CO)C[C@H](C)[C@@H](CN(C)C(=O)Nc2c(C)noc2C)O3)cc1 | i | i | i | i
O=C1O[C@H](c2ccccc2)[C@H](c2ccccc2)N2[C@H]1[C@@H](C(=O)NC[C@H](O)c1ccccc1)[C@]1(C(=O)Nc3ccc(C#CC4=CCCCC4)cc31)[C@H]2c1ccc(OCCO)cc1 | i | i | i | i
O=C1C2C=C(I)[C@H](C[C@@H]2OCCCCCCO)[C@@]12CO2 | i | i | i | i
CC(C)NC(=O)N(C)C[C@@H]1OCCCC[C@@H](C)Oc2ccc(NC(=O)CCC(F)(F)F)cc2C(=O)N([C@@H](C)CO)C[C@H]1C | i | i | i | i
Cc1c(C(=O)Nc2sc3c(c2C(=O)NCCc2ccccc2)CCC3)oc2ccc(F)cc12 | i | i | i | i
O=S(=O)(NCc1nc2ccccc2[nH]1)c1ccc(Cl)c(Cl)c1 | i | i | i | i
COc1ccc(NC(=O)Nc2ccc3c(c2)C(=O)N([C@@H](C)CO)C[C@@H](C)[C@H](CN(C)Cc2ccc(C(=O)O)cc2)O3)cc1 | i | i | i | i
COc1ccc(S(=O)(=O)NCCN2CCOCC2)c(C)c1C | i | i | i | i
CNCCNS(=O)(=O)c1cccc2cnccc12 | i | i | i | i
C[C@@H]1CCCCO[C@@H](CN(C)C(=O)Nc2ccccc2)[C@@H](C)CN([C@@H](C)CO)C(=O)c2cc(NC(=O)c3ccccc3)ccc2O1 | i | i | i | i
C[C@@H]1CN([C@@H](C)CO)C(=O)c2cc(NC(=O)CCC(F)(F)F)ccc2O[C@@H]1CN(C)C | i | i | i | i
Cc1ccc(C)c(NC(=O)CSc2nnnn2-c2ccc(C(=O)O)cc2)c1 | i | i | i | i
CCc1nc(OCc2ccco2)c2sc3nc4c(cc3c2n1)COC(C)(C)C4 | i | i | i | i
C[C@H]1CN([C@@H](C)CO)C(=O)c2cc(NS(=O)(=O)c3cccs3)ccc2O[C@@H]1CN(C)C(=O)Nc1ccc2c(c1)OCO2 | i | i | i | i
